Compound activity (PubChem)
StopGo reporter = lowers the luciferase signal of an FMDV 2A StopGo reporter | Potency, µM (titrated, usually from 57.9 µM), inactives show top-dose signal change, negative = less light | 410,000 compounds, 1.2% hits | human cells with a luciferase reporter of 2A StopGo recoding; control for the full effect not named in the record; active = well fitted falling curve with a large enough effect; inconclusive = small, poorly fitted or top-dose-only effect; inactive = no such curve, though single readings can be large or run the other way; tested in HEK293T cells; note: % is set by controls: 0 for no effect and ±100 for the full control effect; nearly all actives have a fitted effect of over 45% in size; luciferase light after 4 h
SARS PLpro yeast = SARS-CoV PLP inhibition in yeast; S. cerevisiae expressing SARS-CoV PLpro, growth rescue; control for the full effect not named in the record; Potency, µM (titrated, usually from 32.9 µM), inactives show at the top dose activity, positive = growth rescue; 330,000 compounds, 0.19% hits; note: 0% is about no effect; nearly all actives have a fitted effect of over 55% in size; growth read by luminescence after 48 h
LASV entry inh = blocks Lassa virus binding to or entry into cells. Lassa virus pseudotype entry inhibition, cell reporter; control for the full effect not named in the record. Potency, µM (highest dose often 37.9 µM), for the others: at the top dose activity change, negative = inhibition, actives largely listed as inhibitors. 300,000 compounds, 1.2% hits; active means well fitted inhibition curve with a large enough effect; inconclusive means small, poorly fitted or top-dose-only effect, or effect the other way; inactive means flat fitted curve, though single readings scatter; tested in HEK293 cells; note: % is set by controls: 0 for no effect and ±100 for the full control effect; nearly all actives have a fitted effect of over 50% in size; luciferase read-out
MARV entry inh = inhibitors of Marburg virus binding or cell entry; Potency, µM (series often up to 37.8 µM), for inactives: top-dose activity change, negative = inhibition, usual class: inhibitors; Marburg virus pseudotyped entry inhibition, cell reporter; control for the full effect not named in the record; about a third of the inactives were read at about 46 µM; 300,000 compounds, 1.8% hits; active = well fitted inhibition curve with a large enough effect; inconclusive = small, poorly fitted or top-dose-only effect, or effect the other way; inactive = flat fitted curve, though single readings scatter; tested in HEK293 cells; about a fifth of its hits are not listed in these tables; note: % is set by controls: 0 for no effect and ±100 for the full control effect; luciferase read-out
RE007 growth inh = less growth of the S. pombe RE007 Vpr strain. S. pombe RE007 Vpr strain, BacTiter-Glo ATP luminescence, 24 h; control for the full effect not named in the record. Potency, µM (highest dose often 92.2 µM), for inactives: at the top dose activity change, negative = less growth. 360,000 compounds, 0.21% hits; active = well fitted falling curve with a large enough effect; inconclusive = small, poorly fitted or top-dose-only effect; inactive = no such curve, though single readings can be large or run the other way;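 note: % is set by controls: 0 for no effect and ±100 for the full control effect; nearly all actives have a fitted effect of over 50% in size; the assay follows cell death caused by Vpr and the record does not say whether a fall means rescue or toxicity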
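Fission yeast RE007 carrying one integrated HIV-1 vpr copy, seeded at OD 0.01 in PMG+AL medium with 23 nL pinned compound. Grown 24 h at 30 degrees; viability read by BacTiter-Glo luminescence after 5 min.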
NS1 inh = blocks influenza NS1 protein function; Potency, µM (series often up to 46.1 µM), for the others: at the highest dose activity, positive = more growth; 270,000 compounds, 0.4% hits; S. cerevisiae slowed by influenza A NS1, growth recovery by OD600; note: actives are rising curves; nearly all actives have a fitted effect of over 50% in size
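S. cerevisiae expressing influenza A NS1, grown in glucose, washed, then diluted 1:100 into pH 6.0 -URA galactose medium with 23 nl compound. Growth recovery read as OD600; NS1-free strain serves as control.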
Cruzain noTriton = cruzain (T. cruzi) inhibition without detergent; 200,000 compounds, 2.3% hits; Potency, µM, for inactives: max response, negative = inhibition, actives largely listed as inhibitors; AID 1476; P25779; purified cruzain, Z-FR-AMC fluorescence, no detergent; active = well fitted curve in the direction sought with a large enough effect; inconclusive = small, poorly fitted or top-dose-only effect, or another doubt; inactive = no such curve, though single readings can be large; an effect the other way counts as inactive or inconclusive;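 note: plate controls were enzyme without inhibitor for no effect and buffer without enzyme for full effect; nearly all actives have a fitted effect of over 40% in size; top concentration of the series not given in the record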
Target sequence (P25779 123-467 limits assumed): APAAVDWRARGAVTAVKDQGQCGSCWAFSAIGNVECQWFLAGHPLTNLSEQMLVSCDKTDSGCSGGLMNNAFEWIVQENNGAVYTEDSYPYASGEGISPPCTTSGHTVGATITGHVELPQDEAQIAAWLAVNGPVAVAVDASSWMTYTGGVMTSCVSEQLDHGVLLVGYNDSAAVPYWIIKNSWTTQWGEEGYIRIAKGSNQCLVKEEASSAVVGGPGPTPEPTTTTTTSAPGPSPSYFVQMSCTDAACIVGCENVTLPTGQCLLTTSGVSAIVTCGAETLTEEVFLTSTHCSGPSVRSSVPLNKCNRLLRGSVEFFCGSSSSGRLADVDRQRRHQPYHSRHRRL
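Detergent-free condition (0.00005% Triton X-100) in acetate buffer pH 5.5 with DTT. 1.5 nM enzyme and compound were pre-mixed 15 min, then 2 uM Z-FR-AMC substrate added; reaction progress from fluorescence change between first and third reads (60 s).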
Cruzain Triton = blocks cruzain activity in presence of Triton detergent; P25779; purified cruzain, Z-FR-AMC fluorescence, 0.01% Triton; Potency, µM, inactives show max response, negative = inhibition, most hits filed as inhibitors; 200,000 compounds, 0.43% hits; AID 1478; active = well fitted curve in the direction sought with a large enough effect; inconclusive = small, poorly fitted or top-dose-only effect, or another doubt; inactive = no such curve, though single readings can be large; an effect the other way counts as inactive or inconclusive;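 note: plate controls were neutral wells for no effect and buffer without enzyme for full effect; nearly all actives have a fitted effect of over 40% in size; top concentration of the series not given in the record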
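Detergent-containing run (0.01% Triton X-100) in acetate buffer pH 5.5 with 5 mM DTT: enzyme at 1.5 nM final, 15 min compound preincubation at room temperature, then 2 uM Z-FR-AMC substrate. Activity taken as 60 s fluorescence increase at 360/450 nm.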
The depositor's hits bear a star; [ ] = another dose, or the depositor's remark. Unless noted, calls come from the whole dose curve; as a rule, active means well fitted rising curve with a large enough effect; inconclusive means small, poorly fitted or top-dose-only effect; inactive means no such curve, though single readings can be large or run the other way. Potency is the fitted concentration of half-maximal effect.

For Cc1cccc(CCN(CC(=O)NCc2ccc(F)cc2)C(=O)c2csnn2)c1 the results were StopGo reporter inconclusive, SARS PLpro yeast 2%, LASV entry inh 15%, MARV entry inh 3%[46.1 µM], RE007 growth inh 8% and NS1 inh -11%.
Screening Cc1ccccc1NC(=O)N1CCC(NC(=O)C2CCCCC2)CC1 returned StopGo reporter 3%, SARS PLpro yeast -1%, LASV entry inh 23%, MARV entry inh -29%[46.1 µM], RE007 growth inh 18% and NS1 inh -17%.
Cn1cc(Cl)c(-c2nc3ccccc3[nH]2)n1 was read as StopGo reporter 9%, SARS PLpro yeast 1%, LASV entry inh -4%, MARV entry inh 3%, RE007 growth inh -18%, NS1 inh -14%, Cruzain noTriton 8% and Cruzain Triton 2.2%.
For CCCn1c(SCC(=O)N2CCCC(C)C2)nnc1-c1ccccn1 (stereo not given) the results were StopGo reporter 50%[activator], SARS PLpro yeast 0%, RE007 growth inh 18% and NS1 inh -1%.
COc1ccc(OC)c(/C=N/c2oc(-c3ccco3)c(-c3ccco3)c2C#N)c1 was read as StopGo reporter -16%, SARS PLpro yeast 11%, LASV entry inh -18%, MARV entry inh 7%, RE007 growth inh -20%, NS1 inh 13%, Cruzain noTriton -18% and Cruzain Triton -16%.
`CC(C)c1ccc(NC(=S)Nc2cccc3ccccc23)cc1` gave StopGo reporter inconclusive, SARS PLpro yeast 18%, LASV entry inh 12%[46.1 µM], MARV entry inh 4%[46.1 µM], RE007 growth inh 13% and NS1 inh -18%.
Screening CCOc1cc(C(=O)Nc2ccc3nc(N4CCN(C)CC4)cc(C)c3c2)cc(OCC)c1OCC returned StopGo reporter -29%, LASV entry inh -20%[46.1 µM], MARV entry inh 5.6µM*, Cruzain noTriton 22% and Cruzain Triton -7.4%.
`CCC(C)N1C(=O)/C(=C\c2ccc(N3CCCCCC3)cc2)C(=O)NC1=S` (stereo not given) gave StopGo reporter inconclusive, SARS PLpro yeast 2%, LASV entry inh 25%, MARV entry inh 4%, RE007 growth inh -5%, NS1 inh 13%, Cruzain noTriton 25% and Cruzain Triton -9.8%.
For Fc1ccccc1NC(=S)Nc1ccc(CN2CCOCC2)cc1 the results were StopGo reporter -7%, SARS PLpro yeast -1%, LASV entry inh 9%, MARV entry inh 8%[46.1 µM] and RE007 growth inh 20%.
`COc1ccccc1-c1noc(CSc2nc3ccc(C)cc3[nH]2)n1` gave StopGo reporter inconclusive, LASV entry inh inconclusive, MARV entry inh inconclusive, Cruzain noTriton 9% and Cruzain Triton -11%.
`Cc1ccc(OCC(=O)NNC(=O)C2CCN(c3nc(C)cc(C)n3)CC2)cc1` gave SARS PLpro yeast 4%, LASV entry inh 14%, MARV entry inh 0%, RE007 growth inh 9%, NS1 inh 3%, Cruzain noTriton 3% and Cruzain Triton 3.6%.
For COc1ccccc1NC(=O)N1c2ccccc2Sc2ccccc21 the results were StopGo reporter -7%, LASV entry inh inconclusive, MARV entry inh inconclusive, Cruzain noTriton inconclusive and Cruzain Triton -7.3%.
For Cn1cccc1C(=O)OCC(=O)Nc1cc(C(C)(C)C)nn1-c1ccccc1 the results were StopGo reporter -29%, SARS PLpro yeast -4%, LASV entry inh -3%, MARV entry inh -4%, RE007 growth inh 3%, NS1 inh -13%, Cruzain noTriton -5% and Cruzain Triton 2.1%.
`CC(=O)Nc1cccc(C(=O)Nc2cccnc2)c1` gave StopGo reporter 14%, SARS PLpro yeast -2%, LASV entry inh 9%, MARV entry inh 24%[46.1 µM] and RE007 growth inh -10%.
Screening CCC(=O)NC(=S)NNC(=O)c1ccc(OC)cc1 returned SARS PLpro yeast -3%, LASV entry inh -26%, MARV entry inh -20%, RE007 growth inh -12%, NS1 inh -79%, Cruzain noTriton 2% and Cruzain Triton 1.7%.
`Cc1nnc(SCC(=O)c2ccc(Cl)cc2)n(N)c1=O` gave StopGo reporter 79%[activator], SARS PLpro yeast 0%, LASV entry inh inconclusive, MARV entry inh inconclusive, RE007 growth inh -2% and NS1 inh 6%.
`CC1CC(C)CN(CC(O)COCCOc2ccc(Br)cc2)C1` (stereo not given) gave StopGo reporter -26%, SARS PLpro yeast -8%, LASV entry inh inconclusive, MARV entry inh 13µM*, RE007 growth inh -1%, NS1 inh 7%, Cruzain noTriton -8% and Cruzain Triton 0.7%.
Screening COC(=O)c1ccc(NC(=O)c2sc3nc(-c4ccccc4)cn3c2C)cc1 returned StopGo reporter inconclusive, SARS PLpro yeast 4%, LASV entry inh inconclusive, MARV entry inh inconclusive, RE007 growth inh inconclusive, NS1 inh -6%, Cruzain noTriton inconclusive and Cruzain Triton -3.0%.
`CCOC(=O)CSc1nc2ccc(C)cc2n2cnnc12` gave StopGo reporter 19%, SARS PLpro yeast -3%, LASV entry inh 1%[46.1 µM], MARV entry inh -1%[46.1 µM], RE007 growth inh 2% and NS1 inh -2%.
Screening Cc1c([C@H]2[C@@H](CC#N)C2(C)C)c2ccccc2n1C returned StopGo reporter -23%, SARS PLpro yeast -7%, LASV entry inh 15%, MARV entry inh -11%, RE007 growth inh -12%, NS1 inh -9%, Cruzain noTriton -7% and Cruzain Triton -5.0%.
`Cc1cccc(NC(=O)Cn2c(=O)n(Cc3nc(-c4ccccc4)no3)c(=O)c3ccccc32)c1` gave StopGo reporter inconclusive, LASV entry inh 5%[46.1 µM], Cruzain noTriton 17% and Cruzain Triton -3.8%.
For Clc1ccc(CNc2ccc(N3CCN(Cc4ccccc4)CC3)cc2)cc1 the results were StopGo reporter inconclusive, SARS PLpro yeast -1%, LASV entry inh inconclusive, MARV entry inh inconclusive, RE007 growth inh 2% and NS1 inh -27%.
For O=C(c1ccccc1)N1CCC(c2nc(-c3ccc(S(=O)(=O)NCC4CCCO4)cc3)no2)CC1 (stereo not given) the results were SARS PLpro yeast 9%, LASV entry inh -14%, MARV entry inh inconclusive, RE007 growth inh 0%, NS1 inh 7%, Cruzain noTriton inconclusive and Cruzain Triton 1.8%.
CC(=O)NC1=NC(=O)/C(=C/N2CCCCC2)S1 was read as StopGo reporter 27%, SARS PLpro yeast 2%, LASV entry inh 11%[14.3 µM], MARV entry inh 8%, RE007 growth inh 17%, NS1 inh 0%, Cruzain noTriton -4% and Cruzain Triton 0.6%.
For Cc1nn(Cc2ccc(F)cc2)c(C)c1NC(=O)c1noc2c1CCCCC2 the results were StopGo reporter -29%, SARS PLpro yeast -13%, LASV entry inh 0%, MARV entry inh inconclusive, RE007 growth inh 9%, NS1 inh -13%, Cruzain noTriton -3% and Cruzain Triton 3.1%.
`Cc1c(OCC(=O)NCC2CCC(C(=O)NCCCO)CC2)ccc2c(-c3ccccc3)cc(=O)oc12` (stereo not given) gave StopGo reporter -9%, SARS PLpro yeast 2%, RE007 growth inh -1% and NS1 inh 9%.
CCOc1cc(CNCCCN2CCOCC2)ccc1OCC(=O)NC(C)(C)C was read as StopGo reporter -7%, SARS PLpro yeast 0%, LASV entry inh -6%[46.1 µM], MARV entry inh inconclusive, RE007 growth inh -13% and NS1 inh 1%.
`COCCn1c(CCC(=O)Nc2ccc(C)c(Cl)c2)nc2cccnc21` gave StopGo reporter -24%, LASV entry inh 9%[46.1 µM], MARV entry inh 3%[46.1 µM], Cruzain noTriton 3% and Cruzain Triton -1.0%.
For COc1ccccc1CNC(=O)C1CCC(CNS(=O)(=O)c2ccc(F)cc2)CC1 (stereo not given) the results were StopGo reporter -18%, SARS PLpro yeast 13%, LASV entry inh -3%[46.1 µM], MARV entry inh inconclusive, RE007 growth inh -3% and NS1 inh 5%.
Screening Cc1cccc(C(=O)OC(C)C(=O)N2CCN(Cc3ccccc3)CC2)c1 (stereo not given) returned StopGo reporter -10%, SARS PLpro yeast -7%, LASV entry inh -16%, MARV entry inh 29% and RE007 growth inh 2%.
`CC(=O)c1ccc(N2CCN(C(=O)Cc3cccs3)CC2)cc1` gave StopGo reporter -4%, SARS PLpro yeast 0%, LASV entry inh -14%[46.1 µM], MARV entry inh inconclusive and RE007 growth inh -3%.
`N/C(=N\OC(=O)c1cccs1)c1cccc(Br)c1` gave StopGo reporter 15%, SARS PLpro yeast -5%, LASV entry inh inconclusive, MARV entry inh inconclusive, RE007 growth inh -27% and NS1 inh -76%.
Screening CCCCCn1c(CCCNC(=O)c2ccc(Cl)cc2)nc2ccccc21 returned StopGo reporter -22%, LASV entry inh 1%[46.1 µM], MARV entry inh inconclusive, Cruzain noTriton inconclusive and Cruzain Triton -7.9%.
Screening Cc1cc(C)c(C)c(S(=O)(=O)Nc2ccccc2C(=O)NCCCn2ccnc2)c1C returned StopGo reporter 16%, SARS PLpro yeast 8%, LASV entry inh -9%, MARV entry inh inconclusive, RE007 growth inh 11%, NS1 inh -15%, Cruzain noTriton 4% and Cruzain Triton -0.8%.
For CCCCCCCCCCCCCCCCCC(=O)NCC(COP(=O)([O-])OCC[N+](C)(C)C)OCC (stereo not given) the results were LASV entry inh inconclusive, MARV entry inh 20µM*, NS1 inh -41%, Cruzain noTriton inconclusive and Cruzain Triton -7.4%.
`COc1ccc(-n2nc(C(=O)NCC(=O)NCCCN3CC(C)CC(C)C3)c3ccccc3c2=O)cc1Cl` (stereo not given) gave StopGo reporter 1%, SARS PLpro yeast 1%, LASV entry inh -2%[46.1 µM], MARV entry inh inconclusive, RE007 growth inh 0% and NS1 inh -5%.
Screening COc1ccc(-n2c(/C=C\c3ccccc3F)nc3ccccc3c2=O)c(OC)c1 returned StopGo reporter inconclusive, LASV entry inh 26%[46.1 µM], Cruzain noTriton -10% and Cruzain Triton 0.5%.
For COc1ccccc1CC(NC(C)=O)C(=O)NC1CCN(C(=O)Nc2ccccc2F)CC1 (stereo not given) the results were StopGo reporter 7%, SARS PLpro yeast 3%, LASV entry inh -1%, MARV entry inh 0%[46.1 µM], RE007 growth inh 10% and NS1 inh 2%.
CC(C)c1ccc(CNc2nc3nc4c(c(=O)n3[nH]2)CCC4)cc1 was read as StopGo reporter -7%, SARS PLpro yeast 0%, LASV entry inh 8%[46.1 µM], MARV entry inh -1%[46.1 µM] and RE007 growth inh -10%.
